# Screens deposited in PubChem BioAssay by several laboratories.
# HNF4A DNA FP: change in binding of human HNF4 alpha to DNA; AID 1224865; hit rate 0.3% among 360,000; P41235; HNF4a-FITC DNA binding, fluorescence polarization, 1 h; activity change, % at 10 µM; in the data active = activity change above about 30%, passing the limit was not always enough;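 also: controls were the assay level and a saturating level of protein; the project sought stronger binding though the title names inhibitors; some compounds called inactive have numbers as strong as hits; positive values seem to mean higher polarization but the record does not say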
# Target sequence (P41235 whole entry, looked up): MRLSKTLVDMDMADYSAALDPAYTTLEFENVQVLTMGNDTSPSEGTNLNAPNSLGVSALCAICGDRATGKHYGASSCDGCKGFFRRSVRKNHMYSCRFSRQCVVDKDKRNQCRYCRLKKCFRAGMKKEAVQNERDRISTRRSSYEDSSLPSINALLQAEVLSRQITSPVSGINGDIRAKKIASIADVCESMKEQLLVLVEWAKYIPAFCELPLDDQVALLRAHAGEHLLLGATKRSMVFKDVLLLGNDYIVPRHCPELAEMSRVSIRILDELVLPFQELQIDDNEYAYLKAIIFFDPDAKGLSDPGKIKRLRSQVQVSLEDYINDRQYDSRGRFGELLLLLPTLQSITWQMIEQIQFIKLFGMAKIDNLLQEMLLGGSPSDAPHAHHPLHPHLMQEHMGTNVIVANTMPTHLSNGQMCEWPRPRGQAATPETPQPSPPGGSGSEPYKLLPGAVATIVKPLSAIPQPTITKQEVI
# ALR inh: inhibitors of human sulfhydryl oxidase ALR | AID 485317 | P55789 | hit rate 3.8% among 290,000 | purified ALR, DTT oxidation, H2O2 HRP-luminol luminescence | inhibition, % (test concentration not listed);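 active = mean and each replicate at 75% or more; inconclusive = only one of the two met; inactive = neither met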;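 also: stock transfer was 7.5 nL into about 7.5 µL; 0% = neutral wells and 100% = wells with inactivated enzyme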
# Target sequence (P55789 whole entry, looked up): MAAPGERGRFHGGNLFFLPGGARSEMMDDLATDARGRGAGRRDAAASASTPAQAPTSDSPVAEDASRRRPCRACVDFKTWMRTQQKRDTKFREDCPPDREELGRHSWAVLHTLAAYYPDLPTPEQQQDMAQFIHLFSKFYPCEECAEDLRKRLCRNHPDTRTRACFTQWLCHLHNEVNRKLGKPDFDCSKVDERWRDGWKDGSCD
# rRNA inh HTS: inhibits bacterial ribosomal RNA function over humanized ribosomes. E. coli WT GFP vs humanized-ribosome RFP mutants, fluorescence, 24 h; stronger effect = lower value; DMSO median 0, no signal -100. GFP signal change (wild-type ribosome), % (no concentration beside the values). hit rate 1.6% among 350,000. AID 720706;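 active = significant combined selectivity score with lowered wild-type GFP, culture density cut under 30%, mutant RFP and density less affected; inactive = any of these conditions unmet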; also: one replicate is shown; some compounds called inactive have numbers as strong as hits
# FGF22 binding: binders of recombinant human FGF22 by thermal shift. calls only at 9.99 µM. SYPRO orange fluorescence; percent of sucrose octasulfate shift, DMSO zero. hit rate 1.5% among 340,000;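 active = melting point raised past a set limit in the mean and every replicate; inconclusive = no clear call; three in four hits are not shown here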
# Target sequence (Q9HCT0 whole entry, looked up): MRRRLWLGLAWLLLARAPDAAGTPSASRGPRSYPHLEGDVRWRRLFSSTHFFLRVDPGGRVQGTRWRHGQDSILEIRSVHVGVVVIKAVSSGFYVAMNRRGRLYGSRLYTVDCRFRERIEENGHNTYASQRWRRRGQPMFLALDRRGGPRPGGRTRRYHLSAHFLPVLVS
# UCH37 DUB inh: human UCH37 deubiquitinating enzyme inhibition | hit rate 0.33% among 330,000 | inhibition, % (test concentration not listed) | Q9Y5K5 | purified proteasome/UCH37, Ub-AMC cleavage fluorescence;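 active = mean of two replicates above 20%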;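 also: 0% = compound-free wells with enzyme and 100% = wells lacking proteasome; stock transfer was 100 nL into about 20 µL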
#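 Reagent: Ub-AMC substrate; assay system: Proteasome-associated human UCH37 deubiquitinase; controls: no-proteasome and no-compound wells; read-out: % inhibition of Ub-AMC cleavage fluorescence; timing: 30 min preincubation with enzyme, 25 min cleavage at room temperature; signal: AMC fluorescence from Ub-AMC cleavage, excitation 355 nm, emission 460 nm; buffer or medium: Tris-HCl pH 7.4 plus ovalbumin, ATP-MgCl2, DTT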
# B2AR ag: agonists of human beta-2 adrenergic receptor inducing internalization; Am2.2-beta2AR cells, FAP receptor internalization, flow cytometry; reference of the scale not given here; response, % (concentration not given with the values); hit rate 0.43% among 340,000;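 active = response above a set limit, near 3 SD of response in nonfluorescent compounds, cut at about 42% in these data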;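 also: stock transfer was 100 nL into about 11 µL; a reference agonist was the positive control; negative values mostly stem from fluorescent compounds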
# Ecoli growth: inhibitors of Escherichia coli growth; OD600 absorbance (concentration not given with the values); hit rate 0.21% among 330,000; OD600, 23 h; stronger effect = lower value;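 active = OD600 absorbance below the run mean of sample wells minus 3.6 SD, in any replicate, cut at about 0.56 in these data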;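 also: stock transfer was 300 nL into about 60 µL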
# rRNA inh HTS OD600: also measured in rRNA inh HTS; calls as there; OD600 change, %; measured here: OD600 growth;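 optical density of the mix in the first replicate; 0 = DMSO median and -100 = no signal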
# rRNA inh HTS RFP: also measured in rRNA inh HTS; calls as there; RFP signal change, %; measured here: RFP humanized mutant strains;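 first replicate; 0 = DMSO median and -100 = no signal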
# Starred values were filed as active, the others as inactive; i = inactive; ? = inconclusive; / = no result given. A portion of the library, so the mix of outcomes need not match the whole.
Compound,HNF4A DNA FP,ALR inh,rRNA inh HTS,rRNA inh HTS OD600,rRNA inh HTS RFP,FGF22 binding,UCH37 DUB inh,B2AR ag,Ecoli growth
O=C(c1c(F)c(F)c(F)c(F)c1F)N1CCN(Cc2ccc3c(c2)OCO3)CC1,0.8,-1,18,2,-2.9,i,2.4,-4,0.63
CC(C)(C)n1nnnc1CN(Cc1ccc(F)cc1)Cc1ccco1,-3.9,-1,/,/,/,/,5.3,-2,0.67
Cn1c(SCCOc2ccccc2Cl)nnc1-c1ccncc1,2.2,-2,0,7,-0.5,/,0.0,-2,0.7
Cc1cccc2cc(CNC3CCCC3)c(Cl)nc12,-0.8,-2,5,2,-0.6,i,0.1,-4,0.67
COc1cc(/C=N/NC(=O)C(=O)NCc2ccco2)cc(Cl)c1O,2.1,4,-1,-5,-6.3,i,/,2,/
CCc1ccccc1NC(=O)CN1CCC(NC(=O)COC)CC1,-1.5,-20,/,/,/,/,5.4,-4,0.7
CN(CC(=O)Nc1cccc(F)c1)C(=O)CCCc1nc2ccccc2c(=O)[nH]1,2.6,/,5,7,3.8,i,3.6,-5,0.7
Nc1cc(N)nc(SCC(=O)N2CCN(S(=O)(=O)c3ccccc3)CC2)n1,0.6,-7,3,3,-4.0,i,1.2,3,0.68
Cc1nccn1-c1ccc(C=O)cc1,-0.5,-2,17,12,1.0,i,2.1,-3,0.7
CC(=O)c1ccc(N2CCN(C(=O)Nc3ccc(C(C)C)cc3)CC2)cc1,-1.4,-3,-33,-54,0.1,i,3.8,-3,0.65
CCc1ccccc1NC(=S)N(CCc1ccncc1)C(C)C,0.6,-8,3,-2,-4.9,i,6.1,1,0.67
COc1ccc(NCC(=O)Nc2ccccc2C#N)cc1Cl,3.4,-1,/,/,/,/,2.7,-7,0.68
CCOC(=O)Cn1c(=O)oc2cc(S(=O)(=O)Nc3cccc(C)c3)ccc21,8.6,-6,1,5,-1.2,i,6.5,13,0.77
COc1ccc(C(c2nnnn2CS(=O)(=O)c2ccc(C)cc2)N2CCN(c3ncccn3)CC2)cc1 (configuration not stated),-2.9,-14,/,/,/,/,3.3,-3,0.7
O=C(NCC(c1cccs1)N1CCOCC1)c1cn(-c2ccccc2)nc1-c1ccccc1 (configuration not stated),2.1,/,-18,-18,3.7,i,-2.9,5,0.68
CC(=O)c1ccc(N(C)C)cc1,-0.1,-11,/,/,/,/,0.8,0,0.72
NC(=O)CCN(C1CCCCC1)S(=O)(=O)c1cccc2nsnc12,-1.8,-2,2,-3,-0.7,i,2.4,-8,0.68
Cc1cc(C)c(S(=O)(=O)Nc2ccc3[nH]c(=O)[nH]c3c2)c(C)c1,0.7,3,-26,-25,-4.9,i,-0.3,14,0.67
Brc1ccc2nc(C3CCCCC3)c(CC3CCCCC3)n2c1,1.8,/,8,-2,3.4,i,/,/,/
CCC1(C)Cc2ccccc2-c2nc[nH]c(=O)c21 (configuration not stated),-3.4,/,-12,-9,-1.5,i,3.4,2,0.64
CCOC(=O)CNC(=O)Cn1cnc2c(nnn2-c2ccc(OC)cc2)c1=O,1.2,0,7,0,3.6,i,3.7,-9,0.69
CCN(CC(=O)Nc1ccc(NC(C)=O)cc1)C(=O)C1CCCC1,-2.5,-7,/,/,/,i,-0.7,-3,0.66
N#CC1=C(S)N(c2ccccc2)C(c2ccc(-c3ccccc3Cl)o2)NC1=O (configuration not stated),4.2,56,/,/,/,/,11,4,0.71
Cc1ccsc1C=Nc1ccc(O)cc1,-1.0,96*,/,/,/,/,17,2,0.69
O=C(CSc1nnc(C2CC2)n1C1CC1)c1ccc(F)cc1,0.8,?,/,/,/,i,2.2,0,0.67
Cc1ccc(CCP(=O)(O)CN2CCOCC2)cn1,-1.1,16,/,/,/,/,-0.2,-6,0.69
Cc1sc(NC(=O)C2CCCO2)c(C(N)=O)c1C (configuration not stated),0.7,/,/,/,/,/,0.4,19,0.69
O=C(N/N=C/c1ccc2c(c1)OCO2)C(=O)Nc1ccccc1,3.5,/,7,6,-5.8,i,/,-3,/
O=C1C(=O)N(CCCn2ccnc2)C(c2ccc([N+](=O)[O-])cc2)/C1=C(\O)c1ccc2c(c1)OCCO2 (configuration not stated),1.3,33,7,4,-1.0,i,4.7,6,0.69
CCN(CC)S(=O)(=O)c1cccc(C(=O)N2CC(O)CC2C(=O)O)c1 (configuration not stated),-0.5,-6,/,/,/,/,3.0,2,0.72
CCOc1c(Cl)cc(CNCc2ccccn2)cc1OC,-3.3,-3,5,4,-1.3,i,3.0,-5,0.71
COc1ccc2ccccc2c1C1NC(=O)NC(C)=C1[N+](=O)[O-] (configuration not stated),-0.8,-22,3,6,6.9,i,1.9,3,0.71

# Next part:
SMILES | HNF4A DNA FP | ALR inh | rRNA inh HTS | rRNA inh HTS OD600 | rRNA inh HTS RFP | FGF22 binding | UCH37 DUB inh | B2AR ag | Ecoli growth
COc1ccc(C2NCCc3c2[nH]c2ccccc32)cc1CSc1nc2ccccc2s1 (configuration not stated) | 7.5 | / | -22 | -37 | 27 | i | -0.4 | 23 | 0.66
O=C(c1ccco1)N1CCN(S(=O)(=O)Cc2ccc(Cl)cc2)CC1 | -2.8 | -11 | / | / | / | / | 2.5 | 2 | 0.65
CCCC1CC(C)(c2csc(Nc3ccc(OCC)cc3)n2)OC1=O (configuration not stated) | -0.4 | 48 | -2 | -6 | -3.3 | i | -1.0 | 2 | 0.65
COCc1cc(S(=O)c2ccc(Cl)cc2)nc(C)n1 (configuration not stated) | 0.2 | / | 26 | 25 | -2.0 | i | 9.3 | -5 | 0.65
CSCc1ccc(C(=O)NCc2ccc(C)cc2)cc1 | -3.1 | 8 | / | / | / | / | 4.6 | -4 | 0.66
CN(C)/C=C\C(=C/C(=O)C(F)(F)F)Nc1ccccc1Oc1ccccc1 | -3.8 | -1 | 8 | 7 | 3.6 | i | 6.1 | -3 | 0.72
Cc1sc(NC(=O)CS(=O)(=O)c2ccccc2)c(C#N)c1C | 2.8 | -7 | -13 | -16 | -2.1 | i | -1.1 | -2 | 0.68
CCC(=O)c1cn(CC(=O)Nc2c(C)cccc2C)c2ccccc12 | -1.1 | -4 | 6 | 9 | 5.7 | i | 5.4 | -4 | 0.66
Cc1cc(/C(N)=N/OC(=O)Nc2cccc(C(F)(F)F)c2)no1 | -2.6 | -3 | -36 | -43 | -0.7 | i | 4.4 | -3 | 0.66
OC1CCCN(Cc2ccccc2)C1 (configuration not stated) | 3.5 | -2 | 7 | 10 | -2.2 | i | 0.6 | -2 | 0.64
CC(=O)Nc1ccc(S(=O)(=O)N(Cc2ccccc2)C(C)C)cc1 | 2.3 | 11 | / | / | / | / | 4.1 | 0 | 0.71
COc1cc(/C=N/NC(=O)C23CC4CC(CC(C4)C2)C3)cc(Br)c1O | 0.8 | 20 | -1 | 11 | 7.1 | i | / | 1 | /
O=[N+]([O-])c1ccc(NN=C2CC3CCC2C3)c([N+](=O)[O-])c1 (configuration not stated) | 6.9 | / | -2 | 9 | -1.3 | i | / | / | /
Cn1c(SCC(=O)Nc2ccccc2F)nnc1-c1cccnc1 | 1.0 | -8 | 11 | 10 | 2.5 | i | 2.2 | -1 | 0.71
CCOc1ccc(OCC)c(NC(=O)CN2CCN(c3cccc(C)c3C)CC2)c1 | -0.4 | -1 | 8 | 10 | -0.5 | i | 4.8 | 7 | 0.71
COc1ccc(C(=O)N/N=C(\C)CC(=O)N2CCN(C=O)CC2)cc1 | 0.5 | 7 | / | / | / | / | / | -1 | /
c1ccc(-n2cnc3cc(NCc4ccco4)ccc32)cc1 | -0.4 | / | -5 | 2 | -0.3 | i | -6.1 | -7 | 0.66
Cc1ccc(S(=O)(=O)NNC(=O)C(=O)NNc2ccccn2)cc1 | -1.7 | 95* | / | / | / | / | 6.2 | -1 | 0.75
Cc1cc(OCC(=O)Nc2ccc(S(=O)(=O)N3CCN(C)CC3)cc2)cc(C)c1Cl | 1.3 | 2 | -1 | -12 | 13 | / | 0.0 | 10 | 0.62
CNC(=S)N(CCc1c(C)[nH]c2ccc(Cl)cc12)Cc1cccs1 | / | 5 | / | / | / | / | 1.5 | / | 0.68
O=C(O)CSCC(=O)Nc1cc(C(F)(F)F)ccc1Cl | -1.5 | -16 | / | / | / | / | -1.2 | -1 | 0.68
CCOC(=O)C1=NNC(C(=O)c2ccc(Cl)cc2)C1c1ccc(OC)cc1 (configuration not stated) | 3.6 | 0 | -15 | -8 | 0.0 | i | -0.9 | -5 | 0.66
CC1Oc2ccccc2C=C1/C=N/Nc1ccc(C(=O)O)cc1 (configuration not stated) | 3.0 | 92* | -23* | -13* | -9.5* | i | / | 2 | /
O=C(Cc1ccc(Cl)cc1)Nc1ccc(S(=O)(=O)Nc2cnc3ccccc3n2)cc1 | 5.9 | -8 | -34* | -25* | 1.1* | i | / | 4 | /
CCC(=O)N1CCc2cc(S(=O)(=O)Nc3ccc4c(c3)OCCO4)ccc21 | -1.1 | 0 | / | / | / | / | 0.2 | -38 | 0.7
CC1(C)OC(=O)C2=C(C[C@@H](CCc3ccccc3)O[C@@H]2c2ccc(Cl)cc2)O1 | 2.7 | / | -18 | -16 | -3.2 | i | / | / | /
CC1(C)CC2(CC(c3ccc(F)cc3)c3ccc(O)cc3O2)NC(=S)N1 (configuration not stated) | -0.5 | 10 | -7 | -7 | -2.7 | i | 0.7 | -1 | 0.69
O=C(Oc1ccccc1)c1cccc2cccc(C(=O)Oc3ccccc3)c12 | / | / | 14 | 12 | 1.6 | i | 2.4 | 4 | 0.71
COC(=O)c1ccccc1COn1c(=O)c(C)[n+]([O-])c2ccccc21 | -1.3 | -2 | / | / | / | / | -11 | 6 | 0.71
CCOc1ccccc1NC(=O)c1ccc2c(c1)C(=O)N(CC(C)C)C2=O | 0.9 | 0 | 3 | 5 | 2.7 | i | -28 | -11 | 0.61
CCc1ccc(C(=O)N2CCC(c3nc4ccccc4s3)CC2)cc1 | -0.9 | -7 | / | / | / | / | 1.9 | 8 | 0.64

# Two of the compounds above, with two lines to a compound:
# Second line of a record – HNF4A DNA FP | ALR inh | rRNA inh HTS | rRNA inh HTS OD600 | rRNA inh HTS RFP | FGF22 binding | UCH37 DUB inh | B2AR ag | Ecoli growth
> O=C(Oc1ccccc1)c1cccc2cccc(C(=O)Oc3ccccc3)c12
→ / | / | 14 | 12 | 1.6 | i | 2.4 | 4 | 0.71
> O=C(O)CSCC(=O)Nc1cc(C(F)(F)F)ccc1Cl
→ -1.5 | -16 | / | / | / | / | -1.2 | -1 | 0.68

# Two of these compounds, set out differently.
> O=C(Oc1ccccc1)c1cccc2cccc(C(=O)Oc3ccccc3)c12
  HNF4A DNA FP: /
  ALR inh: /
  rRNA inh HTS: 14
  rRNA inh HTS OD600: 12
  rRNA inh HTS RFP: 1.6
  FGF22 binding: i
  UCH37 DUB inh: 2.4
  B2AR ag: 4
  Ecoli growth: 0.71
> CC1(C)OC(=O)C2=C(C[C@@H](CCc3ccccc3)O[C@@H]2c2ccc(Cl)cc2)O1
  HNF4A DNA FP: 2.7
  ALR inh: /
  rRNA inh HTS: -18
  rRNA inh HTS OD600: -16
  rRNA inh HTS RFP: -3.2
  FGF22 binding: i
  UCH37 DUB inh: /
  B2AR ag: /
  Ecoli growth: /
